From PubChem
eIF4H FP inh – human eIF4H binding inhibitors, primary screen, translation initiation inhibitor project, biochemical, uHTS, fluorescence polarization | Eukaryotic translation initiation factor 4H (Homo sapiens), Q15056 | eIF4H fluorescence polarization binding assay | inhibition, % at 35 µM | 290,000 tested, 0.94% active | AID 2012, 2009;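 active = 50% or more with normal probe brightness, or confirmed in later tests; inconclusive = above 50% with abnormal brightness, or retests that disagree; inactive = below 50% or failed in later tests; about a fifth of its hits are not listed in these tables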;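 note: calls also rest on retests at 20 µM and on dose response follow-up; 0% = protein and probe with vehicle and 100% = probe without protein; strong numbers were not always called active; many hits fall short of the cut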
CSC inhib – cancer stem cell viability inhibitors, primary screen, luminescence. cancer stem cell-like cells viability. 300,000 tested, 1.1% active. inhibition, % at 7.5 µM. AID 2717, 2010;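 active = mean at 75% or more and at least half the replicates too; inconclusive = mean and replicates disagree; tested in HMLE shEcad cells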;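 note: 0% = median of negative and 100% = median of positive control wells; the first replicate is given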
MT1-MMP act inh – blockers of MT1-MMP proenzyme processing, primary screen, HT1080 RFP-PRO-GFP cells, GFP/RFP fluorescence; Matrix metalloproteinase-14 (Homo sapiens), P50281; GFP/RFP ratio fluorescence, overnight; percent of plate control window, DMSO zero; GFP/RFP ratio change, % at 20 µM; 360,000 tested, 0.061% active;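 active = GFP/RFP ratio change of at least 30% with cell ATP level not reduced by more than half and red fluorescence within 50% of control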; note: strong numbers were not always called active
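Material: RFP-PRO-GFP reporter HT1080 cells. Dosing: single-point 20 µM compound, 1% DMSO. Controls: DMSO and RFP-L50D-GFP cell wells. Timing: cells overnight before dosing, compound overnight, 37 °C, 5% CO2. Measure: GFP/RFP fluorescence ratio.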
PABP FP inh – PABP poly(A) RNA binding inhibitors, primary screen, biochemical, fluorescence polarization, uHTS; Polyadenylate-binding protein 1 (Homo sapiens), P11940; inhibition, % at 35 µM; 290,000 tested, 1% active;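 active = 50% or more with normal probe brightness, or confirmed in later tests; inconclusive = above 50% with abnormal brightness, or retests that disagree; inactive = below 50% or failed in later tests; about a fifth of its hits are not listed in these tables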;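 note: calls also rest on retests at 20 µM and on dose response follow-up; controls were probe without protein and protein plus probe with vehicle; some compounds called inactive have numbers as strong as hits; many hits fall short of the cut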
Target sequence (P11940 whole entry, looked up): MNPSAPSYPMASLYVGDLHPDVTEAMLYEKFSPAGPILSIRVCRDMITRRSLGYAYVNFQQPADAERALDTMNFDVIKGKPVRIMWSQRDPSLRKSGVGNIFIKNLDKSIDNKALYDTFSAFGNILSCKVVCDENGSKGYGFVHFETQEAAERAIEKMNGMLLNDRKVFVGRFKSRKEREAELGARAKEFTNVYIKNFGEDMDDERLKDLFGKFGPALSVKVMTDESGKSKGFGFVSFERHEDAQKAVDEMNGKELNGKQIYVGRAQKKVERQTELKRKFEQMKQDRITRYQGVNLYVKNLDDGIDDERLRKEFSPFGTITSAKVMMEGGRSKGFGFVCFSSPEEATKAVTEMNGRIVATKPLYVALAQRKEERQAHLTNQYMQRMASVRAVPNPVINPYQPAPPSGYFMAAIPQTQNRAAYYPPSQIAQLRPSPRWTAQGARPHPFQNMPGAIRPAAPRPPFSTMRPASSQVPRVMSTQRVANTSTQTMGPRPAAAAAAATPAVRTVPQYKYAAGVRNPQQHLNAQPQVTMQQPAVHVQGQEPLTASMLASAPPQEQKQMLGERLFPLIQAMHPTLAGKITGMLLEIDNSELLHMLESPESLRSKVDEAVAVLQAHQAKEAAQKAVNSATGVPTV
UUG fidelity – modulators of yeast start codon fidelity, primary screen, whole organism, S. cerevisiae, single point, plate reader | 350,000 tested, 0.13% active | S. cerevisiae UUG-firefly luciferase reporter, luminescence/redox ratio | activity score, % at 18.7 µM;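 active = replicate mean at a twofold rise or more, about +100% in these data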;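 note: firefly luciferase made from a UUG start codon reports start codon fidelity; reporter light over untreated wells divided by growth signal over untreated wells; some hits fall short of that in this replicate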
HIV Env fusion – inhibitors of HIV-1 Env-driven cell-cell fusion, primary screen, HeLa-JRFL effector, CEM21 target cells, luciferase | inhibition, % at 12.3 µM | 360,000 tested, 1.1% active;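 active = mean replicate inhibition score of at least 50 and every replicate individually at or above 50; inconclusive = only one of the two criteria met; inactive = mean below 50 and not all replicates reaching 50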;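 note: 0% = plate neutral controls and 100% = maraviroc near 300 nM; one replicate is shown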
Rce1 inhib – yeast Rce1p protease inhibitors, primary screen, biochemical, fluorescence, cell-free homogeneous; yeast membranes, quenched prenylated peptide cleavage fluorescence; CAAX prenyl protease 2 (Saccharomyces cerevisiae (strain ATCC 204508 / S288c)), Q03530; calls only; AID 2563, 2010; 290,000 tested, 0.27% active;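 active = fall in fluorescence gain of 50% or more versus controls, with final raw signal at or below 3038400; inconclusive = same 50% fall but final raw signal above 3038400; inactive = fall in fluorescence gain under 50%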;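 note: plate controls were neutral control wells for no effect and wells lacking membranes for full effect; tested at 10 µM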
eIF4H FP inh retest – second read-out of eIF4H FP inh, no call of its own (marks repeat the call); inhibition, %; compound at 20 µM; confirmation average;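 mean of two retest wells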
PABP FP inh retest – second read-out of PABP FP inh, no call of its own (marks repeat the call); inhibition, %; compound at 20 µM; confirmation repeats;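 mean of two retest wells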
MT1-MMP act inh RFP – recorded beside MT1-MMP act inh, whose call it bears; RFP signal change, %; measured here: RFP expression control read;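 0 = vehicle wells; hits needed this value within 50% of zero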
* = called active by the depositor; i = inactive; u = inconclusive; x = not tested or not shown.

SMILES | eIF4H FP inh | CSC inhib | MT1-MMP act inh | MT1-MMP act inh RFP | PABP FP inh | UUG fidelity | HIV Env fusion | Rce1 inhib | others
CC1(c2ccccc2)NC(=O)N(CC(=O)N2CCN(S(=O)(=O)c3c(F)cccc3F)CC2)C1=O (stereo not drawn) | x | 6 | 5 | 0 | x | -7 | x | x
CCOC(=O)c1c(C)[nH]c(C(=O)OC(C)C(=O)NC2(C#N)CCCCC2)c1C (stereo not drawn) | x | x | 1 | 1 | x | -24 | 17 | x
CCCCN(C(=O)Cc1coc2cc(C)c(C)cc12)c1c(N)n(Cc2ccccc2)c(=O)[nH]c1=O | x | -1 | -15 | -8 | x | -5 | x | i
COc1cccc(N2CCN(C(=O)CCCCCNc3nc(=S)[nH]c4ccccc34)CC2)c1 | 2 | 14 | -2 | -17 | -11 | x | 8 | i
COc1ccc(/C=N/NC(=O)c2cccc3ccccc23)c(OC)c1OC | x | 6 | 8 | -1 | x | 2 | -4 | i
O=C(c1ccc2c(c1)OCO2)N(Cc1cccs1)C1(C(=O)NC2CCCCC2)CCCCC1 | 53 | 12 | -12 | -19 | 1 | x | 103* | i | eIF4H FP inh retest=-15;PABP FP inh retest=13
N#C/C(=C/c1ccc([N+](=O)[O-])cc1)C(N)=O | -6 | 8 | 0 | 1 | -4 | x | 13 | i
C[C@@H]1Cn2cnc(C(=O)Nc3ccc(CNC(=O)OC(C)(C)C)cc3)c2C(=O)N1 | x | x | 5 | -20 | x | -9 | 59* | x
CCCOc1ccc(C(C)=O)cc1CSc1nc(O)cc(=O)[nH]1 | -11 | x | 0 | 3 | 10 | -23 | x | i
COC(=O)CC(NS(=O)(=O)c1cccs1)c1ccccc1Cl (stereo not drawn) | -9 | -20 | -5 | -2 | -11 | x | -7 | i
COC1(OC)N=C(NC(=O)Nc2ccccc2)C2(C#N)C(c3ccccc3)C12C#N (stereo not drawn) | -4 | -16 | 2 | 6 | 4 | -19 | x | i
Cc1nc([N+](=O)[O-])cn1Cc1cccc2ccccc12 | 0 | -5 | 3 | -3 | -2 | -13 | 8 | i
COc1ccc(C(CNC(=O)CNC(=O)c2cccc(Cl)c2)N2CCCC2)cc1 (stereo not drawn) | x | x | -1 | 2 | x | -22 | 4 | x
Brc1ccc2nc(-c3ccco3)c(CC3CCCCC3)n2c1 | x | x | -5 | 0 | x | -18 | 0 | x
CCc1nc2ccc(C(=O)Nc3ccc(OC)c(OC)c3)cn2c1N(C)CCC(C)C | x | x | 2 | 0 | x | -7 | 12 | x

Compounds above containing an aryl methoxy group (four):
SMILES | eIF4H FP inh | CSC inhib | MT1-MMP act inh | MT1-MMP act inh RFP | PABP FP inh | UUG fidelity | HIV Env fusion | Rce1 inhib | others
COc1cccc(N2CCN(C(=O)CCCCCNc3nc(=S)[nH]c4ccccc34)CC2)c1 | 2 | 14 | -2 | -17 | -11 | x | 8 | i
COc1ccc(/C=N/NC(=O)c2cccc3ccccc23)c(OC)c1OC | x | 6 | 8 | -1 | x | 2 | -4 | i
COc1ccc(C(CNC(=O)CNC(=O)c2cccc(Cl)c2)N2CCCC2)cc1 (stereo not drawn) | x | x | -1 | 2 | x | -22 | 4 | x
CCc1nc2ccc(C(=O)Nc3ccc(OC)c(OC)c3)cn2c1N(C)CCC(C)C | x | x | 2 | 0 | x | -7 | 12 | x

Further structures
SMILES | eIF4H FP inh | CSC inhib | MT1-MMP act inh | MT1-MMP act inh RFP | PABP FP inh | UUG fidelity | HIV Env fusion | Rce1 inhib | others
CCOC(=O)CCSc1nc(C)cc(C(F)(F)F)c1C#N | u | -16 | -118 | 1 | u | -1 | x | i
O=C(COc1cccc2cccnc12)Nc1ccccc1N1CCOCC1 | 3 | -12 | 4 | -1 | -7 | x | 11 | i
CC(/C=C/c1ccc2c(c1)OCO2)=N/NC(=O)c1ccc(C)nc1 | 3 | x | 1 | 4 | -5 | x | x | i
COc1ccc(C2(c3ccc(OC)cc3)NC(=O)N(CC(=O)N(C)c3ccccc3)C2=O)cc1 | 6 | -3 | -2 | -4 | 10 | -18 | -1 | i
OC(CNc1ncnc2sccc12)c1ccccc1 (stereo not drawn) | 6 | -5 | -3 | -26 | 3 | -26 | 9 | i
CCCOc1ccc(CNC(=S)N/N=C/c2ccc([N+](=O)[O-])cc2)cc1 | -11 | -6 | 0 | 0 | 1 | -23 | -54 | i
CC/C(=N\NC(=O)CSCc1ccccc1Cl)c1ccc2c(c1)OCCO2 | -1 | 1 | 3 | 1 | 11 | -6 | x | i
CCN(CC)S(=O)(=O)c1cc(C(=O)Nc2ccccc2C(=O)O)ccc1OC | -8 | x | 5 | 2 | 9 | -5 | x | i
CC1CCN(C(=O)CNC(=O)Cn2ccc3ccccc3c2=O)CC1 | 2 | -15 | -3 | 2 | -6 | -20 | -18 | i
O=C(NCCN1CCN(c2ccccc2F)CC1)C1c2ccccc2C(=O)N2CCc3ccccc3C12 (stereo not drawn) | -1 | 4 | -4 | 3 | -1 | 9 | -36 | i
CCn1c(N2CCN(Cc3ccc([N+](=O)[O-])cc3)CC2)nc2ccccc21 | -6 | 58 | 8 | -9 | 8 | -1 | 12 | i
COc1ccc(NC(=O)CCOc2ccc(C)cc2)cc1S(=O)(=O)N1CCOCC1 | x | x | 2 | 3 | x | 4 | -5 | x
O=C(NCC1CCCO1)C(=O)N/N=C/c1cccc(Cl)c1 (stereo not drawn) | -4 | 1 | -3 | -2 | 2 | -19 | -22 | x
COc1cc(/C=C2\SC(N)=NC2=O)cc(Cl)c1O | 54 | -16 | -109 | -1 | 11* | -8 | 4 | i | eIF4H FP inh retest=-21;PABP FP inh retest=54*
COC(=O)CNC(=O)COC(=O)c1cc(Cl)cc(Cl)c1N | 2 | x | 5 | -1 | -12 | x | 7 | i

The closing two entries of the part above come first, to join the parts:
SMILES | eIF4H FP inh | CSC inhib | MT1-MMP act inh | MT1-MMP act inh RFP | PABP FP inh | UUG fidelity | HIV Env fusion | Rce1 inhib | others
COc1cc(/C=C2\SC(N)=NC2=O)cc(Cl)c1O | 54 | -16 | -109 | -1 | 11* | -8 | 4 | i | eIF4H FP inh retest=-21;PABP FP inh retest=54*
COC(=O)CNC(=O)COC(=O)c1cc(Cl)cc(Cl)c1N | 2 | x | 5 | -1 | -12 | x | 7 | i
Nc1ccc2c(c1)C(=Cc1cccnc1)c1ccccc1-2 | x | x | 13 | -3 | x | -21 | 20 | x
CCN(C(=O)c1cc2c(=O)[nH]c3ccc(C)cc3c2s1)c1ccccc1C | -7 | 18 | -3 | 2 | 2 | 4 | -5 | i
Cc1cc(C)c(C#N)c(SCc2nc3ccccc3c(=O)[nH]2)n1 | 3 | 2 | -5 | -1 | 0 | x | -103 | x
CCCC1=NN2C(=N)/C(=C\c3cc(C)n(-c4cc(C)cc(C)c4)c3C)C(=O)N=C2S1 | 84 | -3 | -41 | -27 | 1 | 13 | 39 | i | eIF4H FP inh retest=-7;PABP FP inh retest=6
CS(=O)(=O)NCCSCc1ccc(Cl)cc1 | -9 | 12 | 4 | 4 | 6 | -25 | -11 | i
c1ccc(CN(Cc2ccco2)C(c2ccncc2)c2nnnn2C2CCCC2)cc1 (stereo not drawn) | 12 | -15 | -20 | 3 | 25 | -8 | x | i
CC1=CC(=C(C#N)c2nc3ccccc3s2)C=C(C)N1Cc1ccco1 | u | 27 | -161 | 1 | u | -17 | x | i
CCCCn1c(N)c(N(CCOC)C(=O)CN(C)S(=O)(=O)c2ccc(Cl)cc2)c(=O)[nH]c1=O | -7 | -20 | -4 | -5 | 11 | 1 | -2 | i
Cc1nc2ccccc2c(=O)n1/N=C/C=C/c1ccccc1 | -6 | -4 | 6 | 1 | 0 | x | 1 | i
CCOc1ccc(C)cc1S(=O)(=O)Nc1cccnc1 | x | 0 | 1 | 4 | x | x | x | i
COC(=O)C(Cc1c[nH]c2ccccc12)NC(=O)CCNC(=O)c1ccco1 (stereo not drawn) | x | x | 4 | 3 | x | -14 | 2 | x
COC(=O)c1[nH]c(C)c(/C(O)=C2\C(=O)C(=O)N(CCN(C)C)C2c2ccc(C)o2)c1C (stereo not drawn) | -5 | 12 | 5 | 7 | 12 | 1 | x | i
Cc1ccc(C(=O)NCCN(C)C)c(C)c1 | 4 | -12 | -1 | 3 | -8 | -12 | -152 | i
Cc1ccc(NC(=O)CN2C(=O)NC(C)(c3ccccc3)C2=O)c(C)c1 (stereo not drawn) | 2 | -3 | 4 | 5 | -7 | -3 | -23 | i
C=CCn1c(C)c(C(C)=O)c(N2CCCC2)nc1=S | -2 | -7 | -2 | 3 | 2 | -6 | x | x
COC(=O)c1cc(NC2c3ccccc3C(=O)N2c2ccc(Cl)cn2)cc(C(=O)OC)c1 (stereo not drawn) | 0 | 7 | -1 | -5 | 5 | -6 | 46 | i
CCC(C)(C)NC(=O)c1ccc(Sc2nncn2C)c([N+](=O)[O-])c1 | -4 | -3 | 3 | 7 | 0 | -22 | 19 | i
N#Cc1ccsc1NC(=O)C1CCCN1S(=O)(=O)c1cccs1 (stereo not drawn) | x | -6 | 4 | -3 | x | -12 | -2 | i
CSc1nc(=S)cc(C)[nH]1 | -9 | 4 | -3 | 0 | 5 | -16 | 7 | i
Cc1cccc2c1NC(=O)C21N2CCCC2C(C(=O)c2ccc3ccccc3c2)C12C(=O)Nc1ccccc12 (stereo not drawn) | -6 | 31 | x | x | 8 | x | x | i
COc1ccc(CNC(=O)NS(=O)(=O)c2ccc(C)cc2)cc1 | x | -1 | -1 | 5 | x | 14 | 1 | i
O=C(COC(=O)c1cc(Br)ccc1O)NCC1CCCO1 (stereo not drawn) | x | -5 | 4 | 3 | x | -8 | -12 | i
O=C(NCc1cccnc1)/C(=C/c1ccc([N+](=O)[O-])cc1)NC(=O)c1ccccc1 | x | -11 | 0 | 1 | x | x | -26 | x
CN(C(=O)c1ccccc1C(=O)c1ccccc1)C1CCS(=O)(=O)C1 (stereo not drawn) | 1 | -12 | 2 | -3 | 0 | -13 | x | i
Cc1cccc(NC(=O)COC(=O)c2cc3ccccc3oc2=O)c1 | 12 | -2 | 1 | -1 | -5 | x | 7 | x
Cc1ccc(C(C)C)cc1S(=O)(=O)NCc1ccccn1 | -14 | 24 | -2 | -2 | -3 | -4 | 3 | i
CN1CC(=O)N/C1=N\C(=O)Nc1ccc2c(c1)N(C)C(=O)CS2 | -3 | -9 | 2 | 9 | 3 | -20 | -12 | i
O=C(OCc1cn([C@@H]2CN(CC3CCCCC3)[C@@H](c3ccc(Cl)cc3)C[C@H]2O)nn1)c1ccccc1 | x | x | 0 | 4 | x | -10 | 10 | x
CC(=O)Nc1ccc(C(=O)CSc2nnc(C)o2)cc1 | -7 | -12 | -1 | -1 | -2 | 2 | x | i
O=C(O)c1cccc(CN2C(=O)S/C(=C/c3cccc([N+](=O)[O-])c3)C2=O)c1 | 6 | 43 | 5 | -8 | -4 | x | -5 | i

Some of the compounds tested. The share of hits here may be higher or lower than overall.
